# Screens (PubChem BioAssay)
# Hedgehog: Drosophila hedgehog isoform A inhibitors, primary screen, biochemical, plate reader, single concentration (AID 588832). Biochemical plate reader assay, Hedgehog inhibition; active compounds read high. 8,000 tested, under 10 active. inhibition, % at 30.3 µM; in the data active = inhibition from about 57%;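 also: 0% = neutral control wells and 100% = positive control wells; cholesterol-driven self-cleavage of fly hedgehog protein by fluorescence polarization; read one hour after cholesterol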
# Numbers without * were called inactive. The list is partial, so the mix of outcomes need not match the whole.
compound	Hedgehog
Cc1ccc(-c2nnc(SCC(=O)Nc3ccccc3F)o2)cc1	-9
COc1ccc(NC(=O)CSc2nc3ccccc3nc2N2CCCC2)c(OC)c1	-3
Cc1cc(OCC(=O)NCCc2c[nH]c3ccccc23)c2c(C)c(C)c(=O)oc2c1	8
Cc1cc(Nc2ccc(Br)cc2)n2nc(C)nc2n1	9
CC1(C)CC(=O)c2c(O)cc(OCC(=O)Nc3ccc(S(N)(=O)=O)cc3)cc2O1	9
CCOc1ccc(-c2nc(CSCC(=O)N3CCN(C(=O)c4ccco4)CC3)c(C)o2)cc1	2
COc1ccc(-c2nc(CS(=O)CC(=O)NCc3ccco3)c(C)o2)cc1 (centres undefined)	2
Cc1cc2c(cc1S(=O)(=O)NCCc1ccc(Cl)cc1)OCC(=O)N2	7
COc1ccc(N2CCN(C(=O)c3ccc4c(=O)n5c(nc4c3)CCCCC5)CC2)cc1	4
COc1ccc(S(=O)(=O)NCc2nc3nc(C)cc(C)n3n2)cc1OC	9
Cc1cccc(CSc2nc3ccncc3n2CC(=O)Nc2cc(C)cc(C)c2)c1	5
COc1cc(/C=C/CO)ccc1O[C@@H]1O[C@H](CO)[C@@H](O)[C@H](O)[C@H]1O	7
CN(C)S(=O)(=O)c1ccc(C(=O)NCc2ccc3[nH]c4c(c3c2)CCCC4)cc1	5
Cc1ccc(Cn2c(C)c3cnn(CC(=O)NCc4ccccn4)c(=O)c3c2C)cc1	4
C=CC1C(OC2OC(CO)C(O)C(O)C2O)OC=C(C(=O)OC)C1CC1CC(=O)CC(CC(=O)CCc2ccc(O)cc2)O1 (centres undefined)	9
CCc1ccc(OC(C)C(=O)N(Cc2ccco2)C2CCS(=O)(=O)C2)cc1 (centres undefined)	7
COC(=O)c1cc(S(=O)(=O)N2CCN(c3ccccc3)CC2)c[nH]1	7
CCCCn1c(C(C)NC(=O)CC)nc2ccccc21 (centres undefined)	8
Cc1sc(NC(=O)c2ccco2)c(C(c2cccnc2)N2CCN(c3ccc(F)cc3)CC2)c1C (centres undefined)	2
Cn1c(=O)oc2cc(S(=O)(=O)NCCN3CCc4ccccc4C3)ccc21	8
CC(NS(=O)(=O)c1ccccc1)C(c1cccs1)N1CCOCC1 (centres undefined)	3
CCC(C)NC(=O)CS(=O)(=O)Cc1nc(-c2cccc(OC)c2)oc1C (centres undefined)	9
COc1ccc(S(=O)(=O)N2CCN(c3c(C)cccc3C)CC2)cc1OC	12
CC1=C(C(=O)N2CCN(C(=O)c3ccco3)CC2)C2(CCC(C)CC2)OC1=O (centres undefined)	17
O=C(CCO)c1ccc(O)cc1	18
Cc1cc(=O)oc2c3c(cc(OCC(=O)Nc4ccc(CCO)cc4)c12)OC(C)(C)CC3	0
COc1cc2c3nnc(-c4ccc(F)cc4)c-3cn(Cc3ccc(F)cc3)c2cc1OC	-2
COc1ccc(N)c(C)c1	2
COc1cccc(C(=O)OCn2nnc3ccccc3c2=O)c1OC	3
Cc1ccc2c(c1)NC(=O)C(CC(=O)NCCCN1CCN(c3cc(Cl)ccc3C)CC1)O2 (centres undefined)	-13

# Next part; the last five above are carried over.
compound	Hedgehog
Cc1cc(=O)oc2c3c(cc(OCC(=O)Nc4ccc(CCO)cc4)c12)OC(C)(C)CC3	0
COc1cc2c3nnc(-c4ccc(F)cc4)c-3cn(Cc3ccc(F)cc3)c2cc1OC	-2
COc1ccc(N)c(C)c1	2
COc1cccc(C(=O)OCn2nnc3ccccc3c2=O)c1OC	3
Cc1ccc2c(c1)NC(=O)C(CC(=O)NCCCN1CCN(c3cc(Cl)ccc3C)CC1)O2 (centres undefined)	-13
CCOC(=O)N1CCC(NC(=O)c2ccc3c(c2)N(Cc2ccc(C)cc2)CCS3)CC1	-2
Cc1cc2ncn(C3CC(=O)N(Cc4ccc(N5CCCC5=O)cc4)C3=O)c2cc1C (centres undefined)	9
COc1ccc(-c2cc(=O)oc3cc(OC(C)C(=O)NCCCn4ccnc4)ccc23)cc1 (centres undefined)	5
CCOC(=O)C1CCN(C(c2cccc(F)c2)c2sc3nc(C)nn3c2O)CC1 (centres undefined)	8
COc1ccc(C)cc1NC(=O)CSc1nc2ccccc2nc1N1CC(C)OC(C)C1 (centres undefined)	5
O=C1c2ccccc2C(Nc2ccc(F)cc2F)N1CCN1CCOCC1 (centres undefined)	4
O=C(NC(=S)N1CCCCC1c1cccnc1)c1ccccc1 (centres undefined)	5
CCn1c(=NC(=O)c2ccc(N3C(=O)CCC3=O)cc2)sc2c(OC)ccc(OC)c21	4
Cc1ccccc1-n1c(Cn2c(=O)sc3ccccc32)nnc1SCC(=O)N1CCCC1	8
C=CCOc1cccc(C2c3c(oc4ccc(F)cc4c3=O)C(=O)N2CCCN2CCOCC2)c1 (centres undefined)	25
CC(=O)N1CCc2c(sc3c2c(=O)n(Cc2ccccc2)c(=O)n3CC(=O)NCC2CCCO2)C1 (centres undefined)	4
COc1ccccc1-n1c(CNC(=O)c2ccco2)nnc1SCC(=O)Nc1nccs1	5
Cn1c(=O)c2c(n(C)c1=O)n(C)c(=O)n2C	7
Cc1ccc2c(c1)N(CCCC(=O)NCCCN1CCCCC1)C(=O)CO2	7
Cc1ccc(CCNS(=O)(=O)c2c(C)nc3sccn3c2=O)cc1	-6
CN(C)C(CNS(=O)(=O)c1ccc(Cl)cc1)c1cccnc1 (centres undefined)	3
COc1c2ccoc2nc2c(OC)c(OCC(OC(C)=O)C(C)(C)O)ccc12 (centres undefined)	2
O=C(CCn1c(=O)oc2ccccc21)N(Cc1ccccc1)c1ccccc1	5
O=C(c1ccc(NC2=NC3CS(=O)(=O)CC3S2)cc1)N1CCN(Cc2ccccc2)CC1 (centres undefined)	2
O=C(NCCCCNCCCNC(=O)c1ccccc1)c1ccccc1	4
CCOc1ccc(C2c3c(oc4cc(C)c(C)cc4c3=O)C(=O)N2CCCN2CCOCC2)cc1 (centres undefined)	12
Cc1cc(N2CCN(C3CCCCC3)CC2)n2nc(C)nc2n1	5
CC(=O)Nc1ccc(S(=O)(=O)N2CCC(c3nnc(-c4ccc(C)cc4)o3)CC2)cc1	3
CCC/C(O)=C1\C(=O)CC(c2ccccc2)CC1=NCCc1c(C)[nH]c2ccccc12 (centres undefined)	5
COc1ccc(N2CSC3=C(C#N)C(c4cccc(OC)c4OC)CC(=O)N3C2)cc1 (centres undefined)	5
CC(=O)Nc1cc2ccc(OC(C)=O)cc2oc1=O	8
COC(=O)C1=CO[C@@H](O[C@@H]2OC(CO)[C@@H](O)[C@@H](O)[C@@H]2O)C2C1CC[C@]2(C)O (some centres undefined)	0
Cc1c(C(=O)N2CCN(C(=O)c3ccco3)CC2)sc2nc(-c3ccc(F)cc3)cn12	8
COc1ccc(NS(=O)(=O)c2cc3c(cc2C)NC(=O)CO3)c(OC)c1	5
COc1ccc(CNC(=O)[C@H](NC(=O)C2CCN(C(=O)[C@@H](N)CCSC)CC2)C(C)C)cc1	8

# (more compounds)
compound	Hedgehog
CNC(=O)c1c(NC(=O)c2ccc(N3C(=O)CCC3=O)cc2)sc2c1CCCC2	4
O=C(NCCCN1CCOCC1)c1cc(-c2ccc(O)cc2)on1	2
COc1cc2c(c3oc(-c4ccccc4)cc(=O)c13)C=CC(C)(C)O2	7
COc1ccc(Cl)cc1C(=O)N1CCN=C1SC	2
Cn1cccc1Cc1nnc(SCC(N)=O)n1CCc1ccccc1	15
Cn1cc(S(=O)(=O)Nc2ccc(Cl)cc2Cl)c(=O)n(C)c1=O	10
COc1ccc(Cl)cc1NC(=O)c1cc(S(=O)(=O)N2CCCC2)cn1C	4
CCOC(=O)N1CCC(N2C(=O)c3ccccc3C2Nc2ccc(C)cc2)CC1 (centres undefined)	11
CCN1CCN(C(c2ccccc2)c2sc3nc(C)nn3c2O)CC1 (centres undefined)	10
Cc1cccc(-c2nc(CS(=O)CC(=O)NCc3cccs3)c(C)o2)c1 (centres undefined)	5
Cc1ccccc1C1c2[nH]c3ccccc3c2C[C@H]2C(=O)N(c3ccccc3C(=O)NCCCN3CCOCC3)C(=O)N12 (some centres undefined)	9
CCCCSc1nnc(-c2c[nH]c3ccccc23)n1C	9
CC1CCc2nn(CC(=O)Nc3c(F)cc(F)cc3Br)cc2C1 (centres undefined)	7
CCOC(=O)c1ccc(NS(=O)(=O)c2c(C)n(C)c(=O)n(C)c2=O)cc1	5
Cc1ccc(N2CCN(S(=O)(=O)c3c(C)nc4sccn4c3=O)CC2C)cc1 (centres undefined)	4
COc1ccc(N2Cc3ccccc3C2)cc1Cl	12
Cn1c(Cn2c(=O)sc3ccccc32)nnc1SCc1ccccc1F	12
Cn1c(C(=O)NCCCN2CCN(c3ccc(F)cc3)CC2)cc2c(=O)n(C)c3ccccc3c21	8
CN1CCN(c2ccccc2NC(=O)C(Cc2ccccc2)n2cccc2)CC1 (centres undefined)	4
CC(=O)C1=C(O)CC(c2ccccc2)CC1=NCCc1c(C)[nH]c2ccc(C)cc12 (centres undefined)	5
COc1ccc(-n2c(Cc3cccn3C)nnc2SCC(=O)NCC2CCCO2)cc1 (centres undefined)	9
COc1cccc(-c2cc(N)nn2C(=O)Nc2ccc(Cl)cc2)c1	2
COc1ccc(-n2c(Cc3cccn3C)nnc2SCC(=O)NCc2ccc(F)cc2)cc1	25
CCc1ccc(C2CC(=O)N3CN(c4ccccc4)CSC3=C2C#N)cc1 (centres undefined)	7
Cn1c(C(=O)NC2CCCCC2)cc2c(=O)n(C)c3ccccc3c21	5
CCCc1cc(C(=O)Nc2ccc(F)cc2F)no1	4
C[C@H](O)[C@@]1(O)CC[C@H]2[C@@H]3CC[C@@H]4C[C@H](O)CC[C@]4(C)[C@H]3CC[C@@]21C	9
Cc1[nH]c2ccccc2c1SCCN	2
Cc1ccc(CCNC(=O)C2CCN(S(=O)(=O)c3c(C)nn(C)c3C)CC2)cc1	4
Cn1c(Cn2c(=O)sc3ccccc32)nnc1SCc1cccc(F)c1	21

# The closing two records of the section above open the next one.
compound	Hedgehog
Cc1ccc(CCNC(=O)C2CCN(S(=O)(=O)c3c(C)nn(C)c3C)CC2)cc1	4
Cn1c(Cn2c(=O)sc3ccccc32)nnc1SCc1cccc(F)c1	21
O=C(COc1ccc(F)cc1)N(Cc1cccs1)C1CCS(=O)(=O)C1 (centres undefined)	5
CCOC(=O)N1CCC(N2C(=O)c3ccccc3C2Nc2ccc(Cl)cn2)CC1 (centres undefined)	2
CC1(C)Oc2cc3oc(-c4cc(O)cc(O)c4)cc3cc2CC1O (centres undefined)	12
O=C(NCc1ccc(Cl)cc1)C(=O)NCC1OCCN1S(=O)(=O)c1ccc2c(c1)OCCO2 (centres undefined)	8
Cc1ccc(N)c([N+](=O)[O-])c1	2
COc1ccc(NC(=O)CC2C(=O)N(c3cccc(OC)c3)C(=O)N2Cc2ccco2)cc1 (centres undefined)	5
Cc1ccc(CNC(=O)c2ccc(NC3=NC4CS(=O)(=O)CC4S3)cc2)cc1 (centres undefined)	13
O=C(c1ccco1)N1CCN(c2nc3ccsc3c(=O)s2)CC1	11
CCc1ccc(S(=O)(=O)Nc2ccc(-c3nc4cccnc4s3)cc2)s1	0
Cc1cc2ccccc2n1CCNC(=O)C(C)C	5
Oc1ccc(-c2nc3cnccn3c2Nc2ccc3c(c2)OCCO3)cc1	5
Cc1ccc2c(cnn2C(=O)CCC(=O)NC2CCCCC2)c1	7
CCOc1ccc(N(CC(=O)Nc2c(C)cc(C)cc2C)C2=NC3CS(=O)(=O)CC3S2)cc1 (centres undefined)	2
CCOCCn1c(CN(C)Cc2ccccc2)nc2c1c(=O)n(C)c(=O)n2C	7
OC(COc1cccc(OCC(O)CN2CCOCC2)c1)CN1CCOCC1 (centres undefined)	0
CC(NC(=O)NC1CCCCC1)C(c1cccs1)N1CCN(Cc2ccccc2)CC1 (centres undefined)	5
Cc1ccc(OCC(=O)Nc2cc(-c3nn4c(C)nnc4s3)ccc2C)cc1	9
Cn1cccc1Cc1nnc(SCC(=O)N2CCCC2)n1CCc1ccccc1	17
CC(NC(=O)C1CCCCC1)C(c1cccs1)N1CCOCC1 (centres undefined)	10
Cc1c(C)c2ccc(OC(C)C(=O)N3CC[C@@]4(O)CCCC[C@H]4C3)c(C)c2oc1=O (some centres undefined)	11
CCOC(=O)c1ccc(S(=O)(=O)N2CCN(CCC#N)CC2)cc1	8
COc1ccc(-n2c(Cc3cccn3C)nnc2SCC(=O)Nc2ccc(Cl)cc2)cc1	17
COc1ccccc1N1CCN(CC(O)c2ccc3cc[nH]c3c2)CC1 (centres undefined)	5
COc1cc(OC)c2c(O)c3c(c(-c4c5c(c(O)c6c(OC)cc(OC)cc46)CO[C@@H](C)[C@H]5O)c2c1)[C@H](O)[C@H](C)OC3	4
Cn1c(C(=O)NCCCN2CCN(c3ccccc3F)CC2)cc2c(=O)n(C)c3ccccc3c21	4
COc1ccc(N2CCN(C(c3ccccc3)c3sc4nc(C)nn4c3O)CC2)cc1 (centres undefined)	15
COc1ccc(C2CC(c3cccs3)=NN2C(=O)CSC2=NN3CCCC(=O)N=C3S2)cc1 (centres undefined)	5
Cn1c(=NC(=O)C2CC2)sc2cccc(F)c21	7
Cc1c(CC(=O)NCC(=O)N[C@H](Cc2ccccc2)C(=O)O)c(=O)oc2cc(O)ccc12	7
O=C(NCc1ccco1)c1ccc2c(c1)N(Cc1ccccc1)C(=O)CS2=O (centres undefined)	9
C=C1C(=O)OC2CC1C(OC(C)=O)CC(C)=CCCC(C)=CCCC2(C)O (centres undefined)	9
COc1ccc(-c2oc3c(OC)c(OC)c(OC)c(O)c3c(=O)c2OC)cc1OC	7

# In the list so far, two have bromine:
compound	Hedgehog
Cc1cc(Nc2ccc(Br)cc2)n2nc(C)nc2n1	9
CC1CCc2nn(CC(=O)Nc3c(F)cc(F)cc3Br)cc2C1 (centres undefined)	7
